Menin-MLL FL inh = menin-MLL binding inhibition, fluorescein peptide; Fluorescence polarization, fluorescein-MLL peptide displacement from menin; FP activity change, % at 61.4 µM; 290,000 tested, under 10 active; inconclusive = falling polarisation curve, or a change in total fluorescence; inactive = total fluorescence flat and polarisation flat or rising; no compound was filed as active; the % refers to the polarisation; negative = inhibition;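 further: % of control where 0% means no effect; inhibitors lower the polarisation; unlabelled MLL peptide was the positive control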
TRPML1 inh = blocks the human TRPML1 channel | hit rate 0.02% among 390,000 | Q9GZU1 | TRPML1-inducible cells, Ca2+ dye fluorescence, FDSS; active compounds read low; inhibition of EC80 agonist-evoked calcium signal | activity change, negative = inhibition, % (concentration not given with the values); in the data active means activity change below about -50%; inconclusive means about -30% to -50%; inactive means above about -30%;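 further: stimulus is agonist 54-4 at its EC80 concentration; on the % scale 0 is the no-effect control and ±100 the full control effect; the text of the record puts the active cut at -80%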
Target sequence (Q9GZU1 whole entry, looked up): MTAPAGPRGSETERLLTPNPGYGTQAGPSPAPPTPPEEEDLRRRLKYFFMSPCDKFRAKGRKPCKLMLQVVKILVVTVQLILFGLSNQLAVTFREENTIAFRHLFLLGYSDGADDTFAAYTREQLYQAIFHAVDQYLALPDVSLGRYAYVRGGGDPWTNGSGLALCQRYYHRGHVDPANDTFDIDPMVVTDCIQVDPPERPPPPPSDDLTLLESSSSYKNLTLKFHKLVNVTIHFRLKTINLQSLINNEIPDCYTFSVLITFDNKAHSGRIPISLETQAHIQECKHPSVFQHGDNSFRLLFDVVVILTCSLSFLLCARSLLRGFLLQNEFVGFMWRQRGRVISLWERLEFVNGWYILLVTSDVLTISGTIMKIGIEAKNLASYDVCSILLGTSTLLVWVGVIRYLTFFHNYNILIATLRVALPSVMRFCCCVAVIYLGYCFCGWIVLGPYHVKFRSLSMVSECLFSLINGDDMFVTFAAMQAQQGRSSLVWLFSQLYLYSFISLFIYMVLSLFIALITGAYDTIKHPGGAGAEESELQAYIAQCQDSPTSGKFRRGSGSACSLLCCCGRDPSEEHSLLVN
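Calcium fluorescence in TRPML1-DL cells induced overnight with Tet: a 110 s read after compound pin addition, then a 110 s antagonist read after challenge with 54-4 at 4 uM final (EC80).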
gsp antag = antagonists of gsp mutant (McCune-Albright syndrome); gsp-mutant cells, cAMP HTRF, 30 min; control for the full effect not named in the record; Potency, µM (top dose mostly 76.9 µM), for the others: at the top dose activity change, negative = inhibition, usual class: inhibitors; hit rate 0.4% among 340,000; AID 624288; active = falling curve of any shape with a large fitted effect; inconclusive = falling curve, mostly with a smaller effect; inactive = flat or rising curve; cell line not stated here;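 further: intracellular cAMP measured with PDE inhibitor Ro 20-1724 present during compound exposure; potency means the concentration at half of the fitted maximal effect; on the % scale 0 is the no-effect control and ±100 the full control effect; nearly all actives have a fitted effect of over 65% in size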
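HTRF cAMP measurement after 30 min RT detection following 30 min, 37C compound treatment alongside […] (added as 300 uM solution) in G418-selected cells seeded at 2000/well and grown 16–24 h.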
TRPV1 potentiator = human TRPV1 potentiation; TRPV1-expressing cells, Fluo-8 calcium influx, capsaicin EC20 potentiation; host cell line not named in the record; control for the full effect not named in the record; potentiation, % at 8.33 µM; hit rate 0.02% among 320,000; active means potentiation above 80%; inconclusive means 30% to 80%; inactive means below 30%; further: 0% is about no effect
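Fluo-8 calcium influx in TRPV1-expressing cells, kinetic read (ex 480/em 520 nm). Compound added and read 3 min for agonist activity, followed by capsaicin at EC20 final and 2 min further read for enhancement.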
Sfp inh = blocks B. subtilis Sfp PPTase activity; Q9F4F7; Biochemical Sfp PPTase activity, qHTS; Potency, µM, for the others: max response, negative = inhibition, most hits filed as inhibitors; hit rate 3.5% among 310,000; active means well fitted inhibition curve with a large enough effect; inconclusive means small, poorly fitted or top-dose-only effect, or another doubt; inactive means no such curve, though single readings can be large or run the other way;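 further: the enzyme is Sfp with the accession as filed and its product quenches rhodamine fluorescence; potency means the concentration at half of the fitted maximal effect; 0% = enzyme reaction without inhibitor and -100% = no enzyme wells; top concentration of the series not given in the record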
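After 15 min at room temperature with compound, 15 nM Sfp received 5 uM rhodamine-CoA plus 12.5 uM BHQ-2-ybbR (50 mM Hepes pH 7.6, 10 mM MgCl2). Rate came from the fluorescence difference over 30 min, ex 525/em 598 nm.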
ClpP mod = qHTS Assay for Activators of ClpP. hit rate 1.9% among 340,000. purified B. subtilis ClpP, FRET peptide cleavage, 20 min. Potency, µM (titrated, usually from 57.5 µM), for inactives: top-dose activity change, negative = active. AID 651965, 2013; active = well fitted falling curve with a large enough effect; inconclusive = small, poorly fitted or top-dose-only effect; inactive = no such curve, though single readings can be large or run the other way; further: potency means the concentration at half of the fitted maximal effect; the source files actives as falling curves though it sought activators and does not explain the sign; nearly all actives have a fitted effect of over 65% in size; many hits overshoot -100%
Target sequence (P80244 whole entry, looked up): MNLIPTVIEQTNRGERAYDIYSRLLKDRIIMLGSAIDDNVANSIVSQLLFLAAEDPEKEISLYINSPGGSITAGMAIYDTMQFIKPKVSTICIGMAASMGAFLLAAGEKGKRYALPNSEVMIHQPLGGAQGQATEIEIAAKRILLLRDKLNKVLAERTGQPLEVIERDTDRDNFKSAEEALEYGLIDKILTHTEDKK
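ClpP 10 microg/mL final, pH 8 Tris/KCl buffer with BSA, glycerol, Tween-20; compound pinned in; FRET-FV substrate; RT 20 min; Ex320/Em430; ΔFRET vs ADEP 5.8 microM, DMSO, no enzyme.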
gsp agonist = gsp mutant agonism | Potency, µM (top dose mostly 76.9 µM), inactives show at the highest dose activation (cAMP increase), actives largely listed as activators | hit rate 0.13% among 340,000 | gsp mutant cells, cAMP HTRF, 30 min; control for the full effect not named in the record | AID 624287; active = well fitted activation curve with a large enough effect; inconclusive = small, poorly fitted or top-dose-only effect, or another doubt; inactive = no such curve, though single readings can be large or run the other way; cell line not stated here;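 further: phosphodiesterase inhibitor Ro 20-1724 added with compounds to block cAMP breakdown; potency means the concentration at half of the fitted maximal effect; nearly all actives have a fitted effect of over 60% in size; about a fifth of the inactives were tested at one dose only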
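Cells in DMEM/10% FBS with G418 were pretreated with compounds in DMSO plus […] (300 uM stock) for 30 min at 37C. cAMP was measured by HTRF (cAMP-d2 plus anti-cAMP antibody-K) after 30 min at room temperature.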
Active calls of the source: *; ? = inconclusive; / = not tested or not shown; & = joins results of further samples; [ ] = remark or other dose.

SMILES	Sfp inh	TRPML1 inh	TRPV1 potentiator	Menin-MLL FL inh	gsp antag	ClpP mod	gsp agonist
CCC(C)(C)n1nnnc1C(c1ccc(OC)c(OC)c1)N1CCN(c2ccc(F)cc2)CC1 (configuration not stated)	?	7	8	3.9	-11%	-0.9%	-1%
O=S1(=O)CCOC[C@H](c2ccccc2)N1Cc1cccc(F)c1	-3%	-2	25	-1.9	9%	-1.2%&1.9%	8%
Cc1cccc(-n2ncc3c(N4CC(C)CC(C)C4)ncnc32)c1 (configuration not stated)	?	23	8	-0.3	-18%	-15%	1%
CN1CCC(N(C)S(=O)(=O)c2ccc(NC(=O)c3cccc(C#N)c3)cc2)CC1	/	7	-6	/	11%	0.8%	-8%
COc1cc(Br)cc2cc(C(=O)OC3CCN(C)CC3)c(=O)oc12	/	-1	/	/	-12%	0.6%	-6%
O=C(CSc1nnc(SCc2ccc(Cl)cc2)s1)N/N=C/c1c[nH]c2ccccc12	-23%	3	3	-1.2	4%	-0.5%	-29%
Cc1c2c(n3c(nc4ccccc43)c1C#N)N(CCN1CCOCC1)CC2	-5%	6	-5	?	-12%	/	-17%[15.4 µM]
Cc1nc2c(-c3ccc(Cl)cc3)c(C)[nH]n2c(=O)c1Cc1ccccc1	9%	12	-5	1.0	?	/	-5%
Cc1cccc(C(=O)Nc2ccccc2NC(=O)c2cccc(C)c2)c1	2%	14	-19	-4.9	-8%	/	1%[15.4 µM]
Cc1ccc(-c2n[nH]c(=S)n2/N=C/c2sccc2C)cc1	-6%	2	0	1.7	-7%	/	3%
O=C(CN1CCCC1=O)NC1CCCc2c1cnn2-c1cc(F)cc(F)c1 (configuration not stated)	21%	8	-7	3.4	0%	-2.7%	4%
CCCCCCCCCS(=O)(=O)N/N=C/c1cccc([N+](=O)[O-])c1	-12%	-5	-19	0.6	-28%	-1.5%	-18%
CN1CCN(c2nc(-c3ccc(Cl)c(Cl)c3)nc3ccccc23)CC1	-10%	/	-2	2.0	/	/	/
CS(=O)(=O)N1CCCC(C(=O)Nc2ccc(F)c(F)c2)C1 (configuration not stated)	/	4	-6	/	11%	-0.9%	11%
CCOC(=O)CNC(=O)c1ccc2c(c1)OCCO2	6%	7	-1	-1.2	6%	-21%	-20%
COc1ccc(-n2cnnc2SCC(=O)Nc2cccnc2Cl)cc1	2%	11	4	-3.6	3%	/	-2%[15.4 µM]
C/C(=N\NC(=O)CNC(=O)C1COc2ccccc2O1)c1ccc(Cl)cc1 (configuration not stated)	10%	-15	-4	3.4	-2%	-0.1%	-6%[15.4 µM]
CC1CCCC12NC(=O)NC2=O (configuration not stated)	/	-9	/	/	2%	3.3%	-18%
CCCOC(=O)CCn1c(=S)oc2ccccc21	5%	-14	-6	-1.7	-10%	-0.2%	-4%
CN(CCC#N)C(=O)COC(=O)c1ccc(Cl)c(S(=O)(=O)N(C)c2ccccc2)c1	5%	6	-4	-3.4	/	/	-1%[15.4 µM]
CCCn1c(=O)[nH]c2ccccc21	-1%	19	-8	1.9	3%	-0.8%	-7%
CCOc1ccc(NC(=O)COn2nnc3ccc(S(=O)(=O)N4CCOCC4)cc32)cc1	7%	21	5	1.9	/	/	-22%[15.4 µM]
FC(F)(F)c1cccc(Cc2noc(CN3CCCC(OCc4ccccn4)C3)n2)c1 (configuration not stated)	14%	29	-5	-2.0	-12%	2.1%	2%[15.4 µM]
COc1ccc(-n2ccnc(SCC(=O)NC3CCCC3)c2=O)cc1OC	/	8	1	/	-9%	-2.3%	7%
C#CCOCCOCCOCCNc1nc(N2CCN(C(=O)C(Cc3cc4ccccc4[nH]3)n3cc(C(N)Cc4ccc(O)cc4)nn3)CC2)nc(N2CCN(C(=O)C(Cc3cc4ccccc4[nH]3)n3cc(C(N)Cc4ccc(O)cc4)nn3)CC2)n1 (configuration not stated)	?	-18	2	8.4	10%	-2.5%	/

Following part.
SMILES	Sfp inh	TRPML1 inh	TRPV1 potentiator	Menin-MLL FL inh	gsp antag	ClpP mod	gsp agonist
CC1CCCCN1C(=O)CSc1nnc2ccccn12 (configuration not stated)	/	-2	/	/	8%	?	-2%
CCCOc1ccc(N2C(=O)CC(N(O)c3ccccc3)C2=O)cc1 (configuration not stated)	-4%	-17	14	0.4	-10%	-0.1%	-4%
CCN(CC)c1ccc(/C=C2/C(=O)N(c3ccc([N+](=O)[O-])cc3)N=C2N2CCOCC2)cc1	19%	/	8	5.1	/	/	/
O=C(NNC(=O)c1ccc2ccccc2c1)c1ccc(Cl)cc1	/	-6	/	/	5%	/	7%
CN(c1ccccc1)S(=O)(=O)c1cccc(NC(=O)CSc2nccc(=O)[nH]2)c1	/	-5	/	/	-15%	-1.3%	1%
Cn1c(SCc2nc3ccccc3c(=O)[nH]2)nnc1-c1ccco1	5%	0	-3	-0.9	7%	0.6%	29%
CN(CCc1ccccc1)C(=O)c1cccc(NC(=O)Cc2cccc(NC(=O)C3CCN(C(=O)C4CCCC4)CC3)c2)c1	/	-4	/	/	-8%	-0.9%	/
Cc1ccccc1NC(=O)Cn1nc(C(F)(F)F)cc1C1CC1	-1%	-2	2	0.9	6%	-0.5%	-27%
Cc1nn(Cc2ccccc2Cl)c(C)c1NC(=O)CCCn1nc(C)c([N+](=O)[O-])c1C	15%	4	1	1.3	-6%	-0.1%	-77%[inhibitor]
O=C(COC(=O)c1ccc(Cl)nc1)Nc1nnc(-c2ccccc2)o1	/	29	6	/	-11%	?	5%
COCC(C)n1c(C)cc(C(=O)COc2ccc(S(=O)(=O)N3CCOCC3)cc2Cl)c1C (configuration not stated)	-7%	0	8	2.1	-32%	0.0%	5%
O=C(O)C(c1ccccc1)C1CCCCC1O (configuration not stated)	/	-6	/	/	11%	/	-50%[inhibitor]
CCc1cc2c(SC(C)C(=O)NC3CCCC3)ncnc2s1 (configuration not stated)	/	16	/	/	-12%	-1.6%	11%[15.4 µM]
O=C(CN(C(=O)c1csnn1)c1ccc(F)c(Cl)c1)NCc1ccc2c(c1)OCO2	7%	4	2	-7.9	-3%	/	-4%[15.4 µM]
CCCn1cnc2cc(NCc3cccc(OC)c3)ccc21	-1%	-6	-2	0.8	-12%	28µM*	-41%[inhibitor]
Cc1cc(N2CCCC2)ccc1NC(=O)COc1ccccc1	/	-1	-13	/	-6%	/	2%[15.4 µM]
COc1cccc(-n2nnc3c(=O)n(Cc4ccc(F)cc4)cnc32)c1	13%	-1	-5	0.7	7%	-15%	1%
C=CCNC(=S)N1CCN(c2ncc3c(=O)c(C(=O)O)cn(CC)c3n2)CC1	11%	2	-5	-0.5	-2%	-15%	13%
CCCn1c(SCC(=O)NCc2ccc(C)cc2)n[nH]c1=O	4%	36	-1	-3.5	12%	/	21%
COc1cc(-c2cc(C(=O)Nc3ccc(S(N)(=O)=O)cc3)c3ccccc3n2)cc(OC)c1OC	15%	4	-7	-3.0	?	/	?
CC(C)(C)OC(=O)CC[C@@H](C(=O)N1CCN(C(=O)OC(C)(C)C)CC1)n1cc(C(Cc2ccc(O)cc2)NC(=O)OC(C)(C)C)nn1 (some centres not stated)	11%	-4	-17	-0.3	-9%	2.4%	/
Cc1c(O)cc2c(c1O)C(=O)CC(c1ccc(O)cc1)O2 (configuration not stated)	4%	-4	?	1.3	-4%	-0.5%	-53%[inhibitor]
CC1(C(=O)Nc2nc3ccccc3s2)CC1(Br)Br (configuration not stated)	-20%	-2	11	-7.0	13%	-3.0%	6%
COc1ccc(CN2CCNC(=O)C2CC(=O)NCC2CCOCC2)c(F)c1 (configuration not stated)	3%	-27	3	/	3%	-4.1%	5%
Cc1cc2c(=O)oc(-c3ccc(Br)cc3)nc2s1	13%	10	-1	-0.5	-13%	/	18%[15.4 µM]

The list goes on.
SMILES	Sfp inh	TRPML1 inh	TRPV1 potentiator	Menin-MLL FL inh	gsp antag	ClpP mod	gsp agonist
CN(C(=O)CSc1nnc(-c2ccc(Cl)cc2)n1C)C1CCS(=O)(=O)C1 (configuration not stated)	/	-2	/	/	12%	1.0%	-4%
COc1ccccc1NS(=O)(=O)c1cc(NC(=O)CCNC(C)=O)ccc1N1CCCCC1	/	17	7	/	-14%	/	-10%[15.4 µM]
O=C(CNc1cccc(F)c1)N1CCc2ccccc2C1	4%	53	-6	5.9	11%	-3.6%	43%
COCCCN1CC23C=CC(O2)C(C(=O)OC)C3C1=O (configuration not stated)	/	-18	/	/	5%	-0.9%	-3%
Cc1cc(C)cc(S(=O)(=O)c2cn(C)c3cc(N4CCN(C)CC4)c(F)cc3c2=O)c1	8%	8	5	/	6%	-12%	-30%[inhibitor]
C/C(=N\NC(=O)CSc1nc2ccccc2s1)c1cccnc1	11%	6	1	1.0	-4%	-0.6%	-6%[15.4 µM]
Cc1cc(C)nc(SCC(=O)OCC(=O)Nc2ccccc2)n1	5%	1	?	-5.4	-17%	/	19%
Cc1ccc(S(=O)(=O)N2CCN(C(=O)c3n[nH]c(=O)c4ccccc34)CC2)cc1	3%	15	12	1.8	0%	0.3%	-43%
CC(Oc1ccc(Br)cc1)C(=O)Nc1ccc(S(=O)(=O)NC2=NCCCCC2)cc1 (configuration not stated)	/	-10	/	/	-1%	0.7%	-13%

3 entries already listed, ordered by count of non-hydrogen atoms, lowest first:
SMILES	Sfp inh	TRPML1 inh	TRPV1 potentiator	Menin-MLL FL inh	gsp antag	ClpP mod	gsp agonist
C=CCNC(=S)N1CCN(c2ncc3c(=O)c(C(=O)O)cn(CC)c3n2)CC1	11%	2	-5	-0.5	-2%	-15%	13%
CN(c1ccccc1)S(=O)(=O)c1cccc(NC(=O)CSc2nccc(=O)[nH]2)c1	/	-5	/	/	-15%	-1.3%	1%
Cc1cc(C)cc(S(=O)(=O)c2cn(C)c3cc(N4CCN(C)CC4)c(F)cc3c2=O)c1	8%	8	5	/	6%	-12%	-30%[inhibitor]

From PubChem
